# PINK1 modulator = modulators of PINK1 expression; 410,000 compounds, 0.2% hits; PINK1 immunofluorescence, high-content cytometry, 24 h; Potency, µM (titrated, usually from 76.6 µM), for inactives: top-dose activation (PINK1 increase), most hits filed as activators; AID 624263; active = well fitted activation curve with a large enough effect; inconclusive = small, poorly fitted or top-dose-only effect; inactive = flat fitted curve, though single readings scatter; cell line not stated here;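 also: potency is read from the fitted curve at half-maximal effect; % of control where 0% means no effect; nearly all actives have a fitted effect of over 65% in size; a mitochondrial uncoupler was the plate control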
#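 PINK1 protein, normally rapidly degraded, was detected by immunofluorescence after 24 hour compound treatment of a stable cell line. Titration data (5 concentrations) came from laser-scanning cytometry, with CCCP-treated wells as controls.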
# TRPML1 ag = human mucolipin-1 channel agonism | Q9GZU1 | TRPML1-expressing cells, Ca2+ dye fluorescence, FDSS; host cell line not named in the record; reference of the full effect not given here | activation, % (test concentration not listed) | 410,000 compounds, 0.12% hits | AID 624414; in the data active = activation above about 50%; inconclusive = about 30% to 50%; inactive = below about 30%; also: 0% is about no effect; the text of the record puts the active cut at 80%
# Target sequence (Q9GZU1 whole entry, looked up): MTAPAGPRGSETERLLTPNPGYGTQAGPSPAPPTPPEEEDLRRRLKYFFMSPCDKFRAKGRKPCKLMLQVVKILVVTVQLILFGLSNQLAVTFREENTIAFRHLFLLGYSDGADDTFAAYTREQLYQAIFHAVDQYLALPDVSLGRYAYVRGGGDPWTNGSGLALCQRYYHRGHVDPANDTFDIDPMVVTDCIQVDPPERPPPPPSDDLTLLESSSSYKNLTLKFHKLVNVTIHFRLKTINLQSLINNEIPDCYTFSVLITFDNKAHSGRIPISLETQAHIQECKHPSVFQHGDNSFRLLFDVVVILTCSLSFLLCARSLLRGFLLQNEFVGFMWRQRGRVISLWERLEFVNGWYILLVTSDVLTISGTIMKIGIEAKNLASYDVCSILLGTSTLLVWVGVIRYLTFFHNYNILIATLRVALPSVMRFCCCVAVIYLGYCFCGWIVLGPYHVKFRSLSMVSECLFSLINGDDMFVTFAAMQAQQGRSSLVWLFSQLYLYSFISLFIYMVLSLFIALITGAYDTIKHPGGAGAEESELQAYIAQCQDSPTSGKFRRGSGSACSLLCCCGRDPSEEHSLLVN
#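 TRPML1-DL cells, Tet-induced overnight (~16 h, 37 degrees C), loaded 45-90 min at room temperature with Ca8 no-wash calcium dye plus quencher. FDSS fluorescence: 10 s baseline, compound pin-transfer, 110 s agonist read, then EC80 54-4 (4uM final) and 110 s antagonist read.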
# Starred values were filed as active, the others as inactive; u = inconclusive.
# Screens in order: PINK1 modulator, TRPML1 ag
> COc1cccc(-c2nc(S(=O)(=O)c3ccc(Cl)cc3)c(NCc3ccccc3)o2)c1
    -0.1%, -0.8
> CCOC(=O)c1ccc(NC(=O)CN2C(=O)c3cccnc3Sc3ccccc32)cc1
    -1.0%, 2.5
> O=[N+]([O-])c1ccc(S(=O)(=O)N2CCN(c3nc(-c4ccccc4)nc4ccccc34)CC2)cc1
    0.1%, -0.4
> COc1ccc(S(=O)(=O)Nc2cc(-c3cn4cccc(C)c4n3)ccc2C)cc1C
    -0.3%, 0.8
> O=C1NCc2c1c1c3ccccc3[nH]c1c1[nH]c3ccccc3c21
    2.2%, -1.0
> COc1ccc(NC(=O)c2ncn(-c3ccccc3)n2)cc1Cl
    0.7%, -0.7
> O=C(CSc1nc2c([nH]c3ccccc32)c(=O)n1-c1ccccc1)Nc1ccc2c(c1)OCCO2
    -0.8%, 2.5
> Cc1ccc(NC(=O)Cn2cc(C(=O)c3ccco3)c3ccccc32)cc1C
    0.6%, 0.6
> Cn1c(NCc2ccccc2F)nc2ccccc21
    1.2%, -0.1
> C#CCOc1ccc(C2C(C(=O)OC)=C(C)NC3=C2C(=O)c2ccccc23)cc1OCC (stereo not drawn)
    4.8%, 0.8
> O=C(Cn1cc(C(=O)C2CC2)c2ccccc21)Nc1ccc(Br)cc1
    0.6%, 0.3
> Cc1ccc(C)c(NC(=O)Cn2ncc3c([nH]c4ccccc43)c2=O)c1
    0.6%, 2.5
> CCCCc1nn2c(=O)cc(COC(=O)C(C)Oc3ccccc3)nc2s1 (stereo not drawn)
    -0.4%, -0.1
> COc1ccc(-n2nnnc2C2CCN(S(=O)(=O)c3cccc(C(F)(F)F)c3)CC2)cc1
    -0.8%, 1.6
> O=C(C[n+]1csc2ccccc21)c1ccc(I)cc1
    3.3%, -0.8

# The last six compounds of the section before open the next one.
# Screens in order: PINK1 modulator, TRPML1 ag
> C#CCOc1ccc(C2C(C(=O)OC)=C(C)NC3=C2C(=O)c2ccccc23)cc1OCC (stereo not drawn)
    4.8%, 0.8
> O=C(Cn1cc(C(=O)C2CC2)c2ccccc21)Nc1ccc(Br)cc1
    0.6%, 0.3
> Cc1ccc(C)c(NC(=O)Cn2ncc3c([nH]c4ccccc43)c2=O)c1
    0.6%, 2.5
> CCCCc1nn2c(=O)cc(COC(=O)C(C)Oc3ccccc3)nc2s1 (stereo not drawn)
    -0.4%, -0.1
> COc1ccc(-n2nnnc2C2CCN(S(=O)(=O)c3cccc(C(F)(F)F)c3)CC2)cc1
    -0.8%, 1.6
> O=C(C[n+]1csc2ccccc21)c1ccc(I)cc1
    3.3%, -0.8
> CCOc1ccc(Sc2cc(C(=O)NCc3ccc(C)cc3)c3ccccc3n2)cc1
    1.6%, -0.1
> Cc1cccc(Cn2c(=O)n(CCc3ccccc3)c(=O)c3c(C)c(C)sc32)c1
    3.9%, 1.3
> Cc1c(Cl)cccc1NC(=O)CN1C(=O)COc2ccc(S(=O)(=O)Nc3ccccc3)cc21
    -0.9%, 0.9
> CCc1nnc(NC(=O)CSCc2cc(=O)c3ccc(C)cc3[nH]2)s1
    3.9%, 1.8
> Cc1cccc(N2CCN(c3ncnc4onc(C)c34)CC2C)c1 (stereo not drawn)
    1.7%, 3.5
> CCCCCn1c(=O)[nH]c2cc(C(=O)NCc3ccccc3)ccc2c1=O
    -0.9%, -0.2
> COc1ccc(CNC(=O)c2cn(-c3cccc(OC)c3)c(=O)c3ccccc23)cc1
    -0.9%, -0.5
> COc1ccc(S(=O)(=O)N(CC(=O)Nc2cc(C)ccc2OC)Cc2ccccc2)cc1
    0.4%, 1.4
> CCOc1cc(CNC(=O)c2ccccc2NC(=O)c2nsc3ccccc23)ccc1OC
    5.9%, 1.1
> CCN1CCN(c2c(S(=O)(=O)c3ccc(C)c(C)c3)cnc3cc(OC)c(OC)cc23)CC1
    3.9%, 1.1
> CN(Cc1ccccc1)C(=O)CSc1nc2ccsc2c(=O)n1-c1ccc(F)cc1
    2.2%, 3.0
> COc1ccc2cc(CNc3ccc(C)cc3)c(=O)n(CC(=O)Nc3ccc(C)cc3Cl)c2c1
    -1.0%, 2.2
> CCOc1ccc(N2CC(NC(=O)c3ccc4c(c3)OCO4)CC2=O)cc1 (stereo not drawn)
    1.8%, -0.6
> COc1cccc(C(=O)c2cn(CC(=O)Nc3ccc4c(c3)OCCO4)c3nc(C)ccc3c2=O)c1
    8.6%, 2.3
> Cc1ccc2c(C)c(C(=O)NCC(c3ccc(Cl)cc3)N3CCOCC3)oc2c1 (stereo not drawn)
    6.7%, 0.1
> CN(C(=O)CSc1cn(CC(=O)N2CCCCC2)c2ccccc12)c1ccccc1
    1.7%, -0.3
> O=C(COCc1cc(-c2cccs2)on1)NCc1cccc(Cl)c1
    0.2%, 2.4
> COc1ccc(S(=O)(=O)NCC(c2ccc(N(C)C)cc2)N2CCCC2)cc1F (stereo not drawn)
    -1.0%, 1.5
> COc1ccc(NC(=O)CSc2nc3ccccc3n2CC(=O)Nc2cccc(C)c2C)cc1
    0.6%, 0.6
> COc1ccc(-c2noc(CSc3nnc(C)n3-c3cccc(C)c3)n2)cc1
    0.0%, 0.2
> Cc1ccc(C(C)(C)C)c(OCC(=O)NCCc2nc3ccccc3[nH]2)c1
    u, 4.2
> CC(C)CN(CC(C)C)c1ccc(/C=C/c2ccnc3ccccc23)cc1
    6.6%, u
> Cc1nn(CCCC(=O)Nc2cccc(F)c2)c(=O)c2c1sc1ccccc12
    1.2%, 0.0
> COc1ccccc1Nc1nc2c(S(=O)(=O)c3ccc(C(C)C)cc3)nnn2c2ccsc12
    -0.2%, -0.1
> COc1ccc(NC(=O)CN2C(=O)COc3ccc(S(=O)(=O)NC4CCCC4)cc32)cc1OC
    1.9%, 1.3
> Cc1ccc(Nc2ncnc3sc4c(c23)CCC(C)C4)cc1C (stereo not drawn)
    -2.8%, 0.2
> Cc1ccccc1NC(=O)Cn1c(=O)n(CCc2ccccc2)c(=O)c2ccccc21
    6.2%, -0.2
> Cc1c(NS(=O)(=O)c2ccc(C(C)(C)C)cc2)c(=O)n(-c2ccccc2)n1C
    -0.5%, -0.5
> CC(=O)Nc1cccc2cccnc12
    -0.4%, 1.5
> CCOC(=O)c1noc2ncn(CC(=O)Nc3ccc(F)cc3Cl)c(=O)c12
    -0.1%, 0.8
> COc1ccc(OC)c(NC(=O)C2CCN(S(=O)(=O)c3ccc(C)cc3)CC2)c1
    -1.4%, -0.4
> COc1ccc(-n2nc(C(=O)Nc3cccc(C)n3)c3c4ccccc4n(C)c3c2=O)cc1Cl
    2.0%, 0.7
> Cc1ccc(C)c(NC(=O)CSc2nc(=O)n(CCN(C)C)c3c2CCC3)c1
    -0.2%, -0.4
> COc1ccc2sc(N(Cc3cccnc3)C(=O)C3COc4ccccc4O3)nc2c1 (stereo not drawn)
    -0.9%, 4.4
> COc1ccc(CCNC(=O)CCCCn2c(=O)c3ccccc3n(Cc3cccc(C)c3)c2=O)cc1OC
    1.0%, 1.2
> COC(=O)C1=C(CS(=O)(=O)c2ccc(C)cc2C)NC(=O)NC1c1ccc(C)cc1 (stereo not drawn)
    -0.1%, -0.1
> Cc1ccc(Cn2cc3c(n2)-c2c(oc(C(=O)Nc4ccc(F)cc4F)c2C)CC3)cc1
    0.8%, 1.5
> CCOc1ccc(-c2cc(C(=O)NCCc3ccc(OC)c(OC)c3)[nH]n2)cc1
    0.5%, 1.9
> Cc1nnc(N2CCN(c3ccc(Cl)cc3)CC2)c2c1nnn2Cc1ccc(F)cc1
    1.0%, -0.5
> c1ccc(-c2nnc(CN3CCN(c4ccccn4)CC3)o2)cc1
    5.8%, 1.7
> O=C(c1ccc2c(c1)CCCC2)N1CCN(c2nc3ccc(F)cc3s2)CC1
    6.3%, 1.9
> CSc1n[nH]c(-c2ccco2)n1
    -0.1%, -0.2
> O=S(=O)(NCCc1csc2nc(-c3ccc(F)cc3)nn12)c1ccc(Br)cc1
    2.2%, 2.5
> O=C(NCCc1ccccc1)c1nc(-c2ccc(Cl)cc2)n2c1CCCCC2
    3.4%, 3.4
> COc1cccc(CNC(=O)CCc2c(C)c3cc4c(C)coc4cc3oc2=O)c1
    2.4%, -1.2
> CCN(c1ncnc2c1c(-c1ccccc1)cn2-c1ccccc1)C1CCCCC1
    1.8%, 12
> O=C(CCS(=O)(=O)c1nc(-c2ccc3c(c2)OCO3)cc(C(F)(F)F)n1)Nc1ccc(F)cc1F
    23%, 2.5
> COc1ccc(CCN2C(=O)N(c3ccc(C)cc3)C(=O)C2CC(=O)Nc2ccc(F)cc2)cc1 (stereo not drawn)
    1.9%, 2.9
> CCn1c(=O)c2c(nc3n2CCN3c2ccc(OC)cc2)n(C)c1=O
    -0.8%, -0.9
> CCc1ccc(C(=O)Nc2cccc(-c3nc4cc(C(C)C)ccc4o3)c2)cc1
    0.5%, 3.4
> Cc1cccc(NC(=O)c2sc(-n3nc(C)c(CCC(C)C)c3C)nc2C)c1
    -0.1%, 1.2
> N#Cc1ccccc1Cn1c(=O)n(CCCC(=O)NCc2ccc3c(c2)OCO3)c(=O)c2sccc21
    -1.0%, 2.5
> Cc1cc(C)c(NC(=O)CCc2c(C)nc3c(c(C)nn3C(C)(C)C)c2C)c(C)c1
    0.4%, -1.3
> CCCn1ccc2c(OCC(=O)Nc3ccccc3C(=O)OCC)cccc2c1=O
    2.7%, 0.0
> CNC(=O)C1CCC(Cn2c(=O)c3sccc3n(CC(=O)N3CCC(C)CC3)c2=O)CC1 (stereo not drawn)
    -0.5%, 0.8
> COc1ccc(NC(=O)CCc2nc3c(C)nn(-c4ccc(C)cc4)c3n(C)c2=O)c(OC)c1
    -0.7%, -0.3
> COc1ccc(-n2nnc(-c3nc(-c4ccc5c(c4)OCO5)no3)c2C)cc1Cl
    0.8%, -0.4
> Cc1ccc(Cl)cc1NCc1nnc2n1CCCCC2
    16%, 0.5
> COc1cc2nc(N3CCN(C)CC3)nc(NC3CCN(C)CC3)c2cc1OC
    0.7%, -0.6
> CCCN1CNc2c(c(=O)[nH]c(=S)n2CCC(C)C)C1
    0.3%, -0.5

# Additional structures
# Screens in order: PINK1 modulator, TRPML1 ag
> COc1ccc(OC)c(C2C(C(=O)Nc3ccccc3OC)=C(C)Nc3c(C(=O)Nc4ccc(F)cc4)cnn32)c1 (stereo not drawn)
    7.8%, 0.9
> COc1cccc(/C=C(\C#N)c2nc3ccc(C)cc3[nH]2)c1
    9.7%, 1.1
> CCC(=O)N1CCc2cc(S(=O)(=O)CCC(=O)N3CCN(c4cccc(Cl)c4)CC3)ccc21
    -0.1%, -0.1
> Fc1ccc(-c2noc3ncnc(NCCCN4CCN(c5ccccc5)CC4)c23)cc1
    -0.6%, 2.1
> Cc1ccc(COC(=O)c2[nH]c3c(c2C)C(=O)CC(c2ccc(N(C)C)cc2)C3)cc1 (stereo not drawn)
    -0.6%, 0.9
> Cc1ccc2onc(CNC(=O)NCc3ccccc3)c2c1
    -2.0%, 0.0
> Cc1ccc(CNC(=O)c2cn(C)c3ccc(S(=O)(=O)N4CCC(C)CC4)cc3c2=O)cc1
    3.7%, -0.1
> O=C(Nc1cc(-c2nc3cc(Cl)ccc3o2)ccc1Cl)c1cc([N+](=O)[O-])ccc1N1CCOCC1
    5.8%, 0.2
> Cc1ccc(CSc2nc(-c3cccs3)ccc2C#N)cc1
    3.4%, 0.4
> CCc1ccccc1NS(=O)(=O)c1ccc2[nH]cc(C(=O)N3CCCCC3)c(=O)c2c1
    2.3%, 0.7
> CC1CCN(S(=O)(=O)c2ccc3c(c2)N(CC(=O)N(C)Cc2ccccc2)C(=O)CO3)CC1
    2.4%, 4.8
> COc1ccc(N2CCN(C(=O)CN3CCSc4ccccc43)CC2)cc1
    2.7%, 3.8
> O=C(c1ccc2c(c1)CCN2S(=O)(=O)c1ccc(Cl)cc1)N1CCN(c2ccccc2)CC1
    0.8%, 0.3
> Cc1ccc(C(=O)Nc2nnc(SCc3cc(=O)c4c(C)ccc(C)c4[nH]3)s2)cc1
    29%, 0.8
> O=C(O)c1ccc(Nc2nc3ccccc3n3cnnc23)cc1
    -1.6%, -0.6
> CCOC(=O)Cn1c(=O)oc2cc(S(=O)(=O)N3CCN(c4cccc(C)c4)C(C)C3)ccc21 (stereo not drawn)
    0.2%, 1.7
> CC(=O)c1cc(-c2ccccc2)n(CCC(=O)Nc2ccc(C(C)C)cc2)c1C
    20%, 13
> COC(=O)c1cc(NC(=O)CCc2c(C)nc3cc(-c4ccccc4)nn3c2C)cc(C(=O)OC)c1
    0.7%, -0.1
> CCC(=O)N1CCc2cc(Br)cc(S(=O)(=O)N3CCCC(C(=O)NCc4ccc(OC)cc4)C3)c21 (stereo not drawn)
    -0.7%, -0.6
> Cc1ccc(CNC(=O)c2cc3c(=O)n(Cc4ccco4)ccc3nc2C)cc1
    4.9%, 1.2
> CCOc1ccc(NC(=O)Cn2cc(C(=O)c3ccc(C)c(C)c3)c(=O)c3cc(F)ccc32)cc1
    2.6%, -0.6
> CCOC(=O)c1cc2c(=O)n3ccccc3nc2n(C(C)C)c1=NC(=O)C(C)(C)Oc1ccc(Cl)cc1
    -0.3%, 0.2
> Nc1cc(=O)nc(SCC(=O)Nc2cccc(Cl)c2)n1CCc1ccccc1
    -0.9%, 1.1
> CCCN1CCN(CCNC(=O)Nc2ccc(OC)cc2OC)CC1
    0.6%, -0.8

# Bioassay records from PubChem.

# The list is partial; rates above refer to the full screens.
